Screens as filed in PubChem.
VDR inhibitor = inhibitors of human vitamin D receptor; VDR-SRC2-3 peptide fluorescence polarization, 2 h; P11473; AID 504847; Potency, µM, without a hit: max response, negative = inhibition, most hits filed as inhibitors; 400,000 compounds, 0.93% hits; active = well fitted inhibition curve with a large enough effect; inconclusive = small, poorly fitted or top-dose-only effect, or another doubt; inactive = no such curve, though single readings can be large or run the other way; also: series mostly up to about 120 µM
Target sequence (P11473 whole entry, looked up): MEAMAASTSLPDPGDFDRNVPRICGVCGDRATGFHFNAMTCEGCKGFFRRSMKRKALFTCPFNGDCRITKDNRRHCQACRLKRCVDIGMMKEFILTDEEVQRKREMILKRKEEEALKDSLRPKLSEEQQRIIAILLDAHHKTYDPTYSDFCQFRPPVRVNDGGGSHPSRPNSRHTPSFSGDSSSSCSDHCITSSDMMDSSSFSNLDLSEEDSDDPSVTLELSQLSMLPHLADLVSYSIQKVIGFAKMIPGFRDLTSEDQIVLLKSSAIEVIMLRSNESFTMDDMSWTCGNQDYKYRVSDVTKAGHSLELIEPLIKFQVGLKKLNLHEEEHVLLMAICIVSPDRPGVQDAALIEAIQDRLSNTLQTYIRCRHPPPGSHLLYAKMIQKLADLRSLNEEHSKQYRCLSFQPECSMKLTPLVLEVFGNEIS
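VDR–SRC2-3 interaction, FP format. Cmpds 23 nl via pintool, brief spin, 2 h ambient incubation.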
* hit, by the source's call; u = inconclusive; & = joins results of further samples; [ ] = remark or other dose. % is scaled to controls: 0 for no effect and ±100 for the full control effect; potency is read from the fitted curve at half-maximal effect. An excerpt; rates above refer to the full screens.

structure	VDR inhibitor
Cc1ccc(Cl)c(NC(=O)COC(=O)c2cc[n+]([O-])cc2)c1Cl	9.3%
CCn1c(CCNC(=O)c2ccc(Cl)cc2)nnc1SCC(=O)NC1CCCC1	14.1%
COc1ccc(Cl)cc1C(=O)NNC(=O)CSc1nnnn1C	-20.9%
Cc1c(Cl)cccc1NC(=O)CNC(=O)c1cn(-c2ccccc2)nc1-c1cccnc1	-16.8%
CCC(=O)c1ccc(OCC(O)Cn2cnc3ccccc32)cc1 (centres undefined)	-4.4%
CCOc1ccc2ccccc2c1C(=O)NCC(c1ccc(N(C)C)cc1)N(C)C (centres undefined)	-19.0%
Clc1ccc(-c2ccc(-c3nn4c(-c5ccco5)nnc4s3)o2)cc1	-3.9%
COC(=O)c1ccccc1NC(NC(=O)c1ccco1)C(=O)c1ccc(C)cc1 (centres undefined)	7.5%
COc1ccc(OC)c2[nH]c(=O)c(CCNC(=S)NC(C)(C)C)cc12	-0.3%
O=C(NN=Cc1ccc(Cl)cc1Cl)C1CC1	-6.7%
O=C(COC(=O)c1ccc2ccccc2c1O)Nc1ccccc1	-3.2%
O=C(CN1C(=O)NC(Cc2c[nH]c3ccccc23)C1=O)Nc1ccc(F)cc1F (centres undefined)	3.5%
COc1cc2c(cc1OC)C(Cc1cc(OC)c(OC)cc1[N+](=O)[O-])=NCC2	-13.4%
CCOC(=O)CN(C(=O)CSc1nnc(-c2ccncc2)n1CCCN(C)C)c1ccccc1	-4.1%
CCc1ccc(OCC(=O)NCc2nc(-c3cccc(C)c3)no2)c(Br)c1	-8.9%
Cc1ccccc1N1C(=O)C(Cc2ccc(F)cc2)S/C1=C(\C#N)C(N)=O (centres undefined)	-5.0%
CN(C)S(=O)(=O)c1cccc(NC(=S)Nc2cccc3cnccc23)c1	u
CC(=O)NC(C)c1nc2ccccc2n1C(C)C (centres undefined)	1.0%
O=C(NCc1cccnc1)c1ccccc1NS(=O)(=O)c1ccccc1	4.0%
CCOC(=O)C1=C(O)c2ccccc2C(=O)/C1=C\c1ccc(CC)cc1	3.55µM*
O=c1n(Cc2ccc(F)cc2Cl)c2ccccc2c2nc(-c3ccccc3)nn12	7.2%
O=[N+]([O-])c1cccc(-c2nnc(-c3ccccc3)o2)c1	-10.0%
O=C(Nc1ccc(S(=O)(=O)Nc2nccs2)cc1)c1cc(-c2ccccc2)nc2ccccc12	-17.2%
Cc1sc2nc3ccc(NCc4ccco4)nn3c(=O)c2c1C	3.7%
CCc1ccc(C(=O)COC(=O)C(Cc2c[nH]c3ccccc23)NC(=O)c2ccc(Br)cc2)cc1 (centres undefined)	6.2%

A run of entries of the results above, for reference:
structure	VDR inhibitor
CCc1ccc(OCC(=O)NCc2nc(-c3cccc(C)c3)no2)c(Br)c1	-8.9%
Cc1ccccc1N1C(=O)C(Cc2ccc(F)cc2)S/C1=C(\C#N)C(N)=O (centres undefined)	-5.0%

More compounds
structure	VDR inhibitor
COc1ccccc1NCc1nnc(-c2ccccc2)o1	-3.2%
COC(=O)c1cc(Sc2cccc(Cl)c2Cl)ccn1	-17.8%
CN(Cc1ccco1)c1ncnc2ccc(-c3cccc(NS(C)(=O)=O)c3)cc12	u
Cc1nn(C2CCS(=O)(=O)C2)c(Cl)c1/C=C/C(=O)OCC(N)=O (centres undefined)	10.7%
CS(=O)(=O)N1c2cccc3cccc(c23)S1(=O)=O	-2.4%
COc1ccc(C(=O)CCC(=O)Nc2cccnc2)cc1OC	21.4%
COc1cc([N+](=O)[O-])ccc1NC(=O)CN1CCCC1	2.8%
C/C(=N\NC(=O)c1cc(-c2ccc(C)s2)nc2ccccc12)c1cccnc1	9.3%
CC(=O)c1cccc(N(C(=O)c2ccco2)C(C(=O)NC2CCCC2)c2ccncc2)c1 (centres undefined)	5.9%
COc1ccc(N=c2nc(-c3ccccc3)n(-c3ccc(C)cc3)s2)cc1	u
Cc1c(S(=O)(=O)N2CCCC(C(=O)O)C2)cnn1C (centres undefined)	25.2%
C(=NN1CCCCCC1)c1ccccc1	-6.5%
CC1CCCCC1NC(=O)CCNS(=O)(=O)c1ccc2c(c1)CCC(=O)N2 (centres undefined)	-21.6%
O=C(C1=C(O)C(=O)N(CCN2CCOCC2)C1c1ccc(F)cc1)c1cccs1 (centres undefined)	-1.7%
CCOc1ccccc1C(=O)NC1CC2CCCC(C1)N2C1CC1 (centres undefined)	3.8%
O=C(Nc1ccc2c(c1)N(C1CCCC1)C(=O)c1ccccc1S2)c1ccc(F)cc1	20.4%
COc1ccc(NC(=O)c2cccc(Cl)c2)c[n+]1[O-]	-11.7%
COC(=O)C1(C(=O)OC)C(C(=O)c2ccccc2)C1c1ccccc1 (centres undefined)	-17.6%
COC(=O)COc1ccc(C2NC(=O)NC(c3ccccc3)=C2C(C)=O)cc1Br (centres undefined)	-15.4%
COc1ccc(C(=O)CN2CCN(S(=O)(=O)c3cccc([N+](=O)[O-])c3)CC2)cc1OC	-5.2%
COc1ccc(CCNC(=O)CCCn2c(=O)c3cccn3c3ccc(F)cc32)cc1OC	10.8%
CCOc1ccc(NC(=O)C2CCN(S(=O)(=O)c3cc(-c4noc(C)n4)ccc3C)CC2)cc1	15.5%
CCCN(CC1CC1)C(=O)COC(=O)c1ccc(CNS(=O)(=O)c2ccc(F)c(Cl)c2)cc1	-9.4%
CCC1(C)Cc2nc3[nH]c(=S)n(-c4ccccc4)c(=O)c3cc2CO1 (centres undefined)	8.7%
COc1ccc(NC(=S)NCCNC(C)=O)cc1	-17.1%
CCOC(=O)C1CCCN(C(=O)Cn2ncc3c(C)n(Cc4ccccc4Cl)c(C)c3c2=O)C1 (centres undefined)	5.0%
CCNc1nc(NC(C)C)nc(Oc2ccc(OCCOc3ccccc3)nn2)n1	41.0%[activator]
CCn1cc(C(=O)NCCc2ccc(OC)c(OC)c2)c(=O)c2cc(S(=O)(=O)N(C)C3CCCCC3)ccc21	-12.4%
C=CCc1c(C)nc2ccc(C(=O)OCC)cc2c1Cl	-10.6%
Cc1cccc(C(=O)NCC(=O)N2CCCCCCC2)c1	-0.9%
CC(C)(C)c1cc[n+](-c2[nH]c(=O)sc2/C=N/NC(=O)c2ccccc2[O-])cc1	-3.0%
CCN(CC)S(=O)(=O)c1ccc(C(=O)Nc2nnc(NC(=S)Nc3ccccc3)s2)cc1	3.1%
c1ccc(-c2cc3ccccc3cn2)cc1	-11.8%
O=c1[nH]cncc1OCc1ccccc1	-15.1%
CCOc1ccc2nc(NS(=O)(=O)c3cccs3)sc2c1	-13.4%
COc1ccc(-c2nc3cnc(N4CCN(C)CC4)nc3n(Cc3cccc(OC)c3)c2=O)cc1	7.0%
C=CCOc1ccc(C(=O)N(Cc2ccc(N(C)C)cc2)C2CCS(=O)(=O)C2)cc1 (centres undefined)	15.0%
Clc1cccc(CN2CCN(c3nc4nonc4nc3NC3CC3)CC2)c1	1.0%
CC(C)Oc1cccc(C(=O)C2CCCN(C(=O)c3ccc4c(c3)OCO4)C2)c1 (centres undefined)	10.2%
Cc1ccc(NC(=O)COC(=O)CCC2CCCC2)cc1S(=O)(=O)N1CCOCC1	-28.4%
COc1cccc(NC(=O)CN(C)C(=O)c2cc(-c3ccccc3)nc3ccccc23)c1	-2.1%
CC(=O)c1cn(C)c(=O)[nH]c1=O	-22.7%
CC(C)CCN1CCN(Cc2cnc(N3CCCC3)s2)CC1CCO (centres undefined)	7.3%
O=C(N/N=C/c1ccccn1)c1ccc2nc[nH]c2c1	-16.1%
CCOC(=O)CNC(=O)CSc1nnc(NC(=O)c2ccc(C)cc2)s1	-11.0%
CCc1nnc(NC(=O)CSc2nc3cc(OC)ccc3cc2C)s1	-19.6%
O=C1OCCN1C(=O)[C@H]1[C@H](c2ccccc2)C(c2ccccc2)=NN1c1ccc(Br)cc1	6.2%&11.0%
O=C(c1cc(COc2ccc(F)cc2Cl)on1)N1CC[C@@H]2CCCC[C@H]2C1	-6.4%
CSc1ncccc1C(=O)OCC(=O)NCc1ccccc1	-5.3%
CCN1C(=O)/C(=C/c2c(C)nn(C)c2C)SC1=S	18.2%

(cont.)
structure	VDR inhibitor
Cc1ccccc1OCCn1c(=S)[nH]c2c(N)ncnc21	-27.5%
COc1ccccc1NC(=O)CN1CCN(CC(=O)Nc2ccc(C)c(F)c2)CC1	11.8%
Cc1nc(N2CCN(Cc3ccccc3)CC2)nc2c1C(=O)CCC2	-15.9%
CN(C1CCCCC1)S(=O)(=O)c1cc2c(cc1Cl)NC(=O)CO2	12.2%
Cc1ccc(OCCN2C(=O)CSC2=O)cc1	5.9%
CCCCNC(=O)c1ccc(-c2nc(CN3CCc4ccccc43)c(C)o2)cc1	-0.6%
CCOC(=O)c1cc(-c2ccccc2)sc1NC(=O)C(C)N1C(=O)c2ccccc2C1=O (centres undefined)	-7.4%
CCOc1ccc(OCC)c(NS(=O)(=O)c2ccc3c(c2)CCCN3C(C)=O)c1	-1.2%
c1ccc(CCNc2ccccn2)nc1	0.5%
CCn1c(CCC(=O)O)nc2cc(S(=O)(=O)N3CCOCC3)ccc21	-17.4%
CCCCn1c(NCc2cc(Br)ccc2O)nc2ccccc21	-4.1%
COc1cc(/C=N/n2c(-c3cc(C)[nH]n3)n[nH]c2=S)ccc1O	8.7%
COc1ccccc1CNc1ncnc2sccc12	7.1%
Cn1cccc1CC(=O)NNC(=S)Nc1ccc(F)cc1	-3.8%
CCOC(=O)c1sc(=NC(=O)c2ccc(S(=O)(=O)N(C)c3ccccc3)cc2)n(C)c1C	1.1%
COc1ccc(C(=O)O/N=C(\C)c2nccs2)cc1	12.9%
CC(C)C[C@@H](CN=[N+]=[N-])N1CCN(Cc2ccccc2)CCC1=O	5.8%
COc1ccc(Nc2ncc(C(=O)N3CCC(C(N)=O)CC3)c3ccccc23)cc1	6.3%
COc1cccc(Nc2sc(C(=O)c3ccc(F)cc3)c(N)c2C(=O)NCc2ccc(C)cc2)c1	1.8%
CCOC(=O)c1c(-c2ccc(OC)cc2)oc2ccc(O)cc12	-29.2%
COc1cc(C2SCC(=O)N2Cc2ccccc2)ccc1O (centres undefined)	5.9%
Cc1c(S(=O)(=O)NCCc2ccccc2)c(=O)n(C)c(=O)n1C	-11.3%
O=C(c1ccc(-n2cnnn2)cc1)N(C1CCCCC1)C1CCCCC1	-1.9%
CS(=O)(=O)Nc1ccccc1C(=O)N1CCOCC1	2.6%
CCCc1nc2ccccc2c(C(=O)O)c1CC	-22.6%

5 entries already listed, ordered by length of the SMILES, ascending:
structure	VDR inhibitor
CCCc1nc2ccccc2c(C(=O)O)c1CC	-22.6%
O=C(c1ccc(-n2cnnn2)cc1)N(C1CCCCC1)C1CCCCC1	-1.9%
CCCCNC(=O)c1ccc(-c2nc(CN3CCc4ccccc43)c(C)o2)cc1	-0.6%
CCOc1ccc(OCC)c(NS(=O)(=O)c2ccc3c(c2)CCCN3C(C)=O)c1	-1.2%
CCOC(=O)c1cc(-c2ccccc2)sc1NC(=O)C(C)N1C(=O)c2ccccc2C1=O (centres undefined)	-7.4%

Later entries.
structure	VDR inhibitor
NC(=O)c1ccccc1NS(=O)(=O)Cc1ccccc1	6.2%
O=C(COC(=O)C12CC3CC(CC(O)(C3)C1)C2)NC(=O)NCc1ccco1	-5.7%
CCc1c(C)nc2[nH]nc(-c3ccccc3)n2c1=O	20.4%
Oc1ccc(C[C@@H]2CNCCN2CCc2cccc(F)c2)cc1	-1.4%
CCCCn1c(N)c(N(CCC(C)C)C(=O)COC(=O)c2sccc2C)c(=O)[nH]c1=O	65.0%[activator]
O=C(c1ccc(COc2c(F)c(F)cc(F)c2F)o1)N1CCN(c2ccccc2)CC1	3.6%
Cc1ccc(C(=O)NCCN2CCN(C(=O)c3ccc(C)c(C)c3)CC2)cc1C	-1.4%
CCc1ccc(NC(=S)N2CCN(S(=O)(=O)c3ccccc3)CC2)cc1	24.2%
OCCc1c[nH]c2ccccc12	-23.5%
Cc1c(Cl)cccc1NS(=O)(=O)c1ccc2[nH]cc(C(=O)NC3CCCC3)c(=O)c2c1	-2.3%
CN1CCc2nc3sc(C(=O)Nc4c(F)cccc4F)c(N)c3cc2C1	-8.9%
N#Cc1ccc(CN2CC3(CCN(C(=O)c4csnn4)CC3)C2)cc1	4.3%
N=C(N)c1ccc(OCCCCCOc2ccc(C(=N)N)cc2)cc1	-10.7%&-1.7%&3.7%
O=C(N/N=C/c1cccc(O)c1)c1cc(-c2ccc3c(c2)OCO3)n[nH]1	4.2%
O=C(O)CCn1c(O)c(C=C2N=c3ccccc3=N2)sc1=S	0.8%
Cn1ccnc1SCC(=O)Nc1cccc2ccccc12	2.8%
O=C(C1CCC(=O)N1Cc1ccccc1Cl)N1CCN(c2cccc(Cl)c2)CC1 (centres undefined)	17.9%
Cn1c(=O)c(-c2ccccc2[N+](=O)[O-])c(Cl)c2ccccc21	-23.8%
CC(C(=O)NCc1ccccc1)N1C(=O)CN(C)C(=O)c2ccccc21 (centres undefined)	-4.5%
COc1cccc(CC2(CO)CCCN(Cc3cn[nH]c3-c3ccccc3)C2)c1 (centres undefined)	-16.4%
COc1ccc(NC(=O)CN(C)C(=O)Cc2c[nH]c3ccccc23)cc1	-4.5%
CN(c1nc(-c2ccc(Br)cc2)cs1)C1CCS(=O)(=O)C1 (centres undefined)	5.9%
COc1cccc(C(=O)NC(=O)Nc2ccc(-n3nc(C(F)(F)F)cc3C(F)(F)F)cc2)c1	-1.6%
O=C(NC1CCCC1)C1C2C=CC3(CN(Cc4cccs4)C(=O)C13)O2 (centres undefined)	-8.6%
